CSC inhib – cancer stem cell inhibition; cancer stem cell-like cells viability, luminescence; inhibition, % at 7.5 µM; actives 1.1% (n = 300,000);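 active = mean at 75% or more and at least half the replicates too; inconclusive = mean and replicates disagree; tested in HMLE shEcad cells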;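 also: 0% = median of negative and 100% = median of positive control wells; the first replicate is given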
Env fusion inh – inhibitors of HIV Env-mediated cell fusion; HeLa-JRFL Env/CEM21 cell fusion, luciferase; AID 651610; actives 1.1% (n = 360,000); inhibition, % at 12.3 µM;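 active = mean replicate inhibition score of at least 50 and every replicate individually at or above 50; inconclusive = only one of the two criteria met; inactive = mean below 50 and not all replicates reaching 50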;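 also: 0% = plate neutral controls and 100% = maraviroc near 300 nM; one replicate is shown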
eIF4H inh – inhibitors of RNA binding by human eIF4H. AID 2012. actives 0.94% (n = 290,000). Q15056. eIF4H fluorescence polarization binding assay. inhibition, % at 35 µM;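 active = 50% or more with normal probe brightness, or confirmed in later tests; inconclusive = above 50% with abnormal brightness, or retests that disagree; inactive = below 50% or failed in later tests; about a fifth of its hits are not listed in these tables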;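 also: calls also rest on retests at 20 µM and on dose response follow-up; 0% = protein and probe with vehicle and 100% = probe without protein; strong numbers were not always called active; many hits fall short of the cut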
UUG fidelity – alters start codon recognition fidelity in yeast. S. cerevisiae UUG-firefly luciferase reporter, luminescence/redox ratio. activity score, % at 18.7 µM. actives 0.13% (n = 350,000);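 active = replicate mean at a twofold rise or more, about +100% in these data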;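 also: firefly luciferase made from a UUG start codon reports start codon fidelity; reporter light over untreated wells divided by growth signal over untreated wells; some hits fall short of that in this replicate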
MT1-MMP act inh – inhibitors of human MT1-MMP activation | P50281 | HT1080 RFP-PRO-GFP cells, GFP/RFP ratio fluorescence, overnight; percent of plate control window, DMSO zero | GFP/RFP ratio change, % at 20 µM | actives 0.061% (n = 360,000);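 active = GFP/RFP ratio change of at least 30% with cell ATP level not reduced by more than half and red fluorescence within 50% of control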; also: strong numbers were not always called active
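Test system: HT1080 cells expressing an RFP-PRO-GFP fluorescent reporter construct / Compound dosing: single-point 20 µM compound, 1% DMSO / Schedule: cells overnight before dosing, compound overnight, 37 °C, 5% CO2 / Evaluation: GFP/RFP fluorescence ratio / Control set: DMSO and RFP-L50D-GFP cell wells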
PABP polyA inh – blocks human PABP binding to poly(A) RNA; fluorescence polarization; actives 1% (n = 290,000); inhibition, % at 35 µM; P11940; AID 2014;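 active = 50% or more with normal probe brightness, or confirmed in later tests; inconclusive = above 50% with abnormal brightness, or retests that disagree; inactive = below 50% or failed in later tests; about a fifth of its hits are not listed in these tables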;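 also: calls also rest on retests at 20 µM and on dose response follow-up; controls were probe without protein and protein plus probe with vehicle; some compounds called inactive have numbers as strong as hits; many hits fall short of the cut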
Target sequence (P11940 whole entry, looked up): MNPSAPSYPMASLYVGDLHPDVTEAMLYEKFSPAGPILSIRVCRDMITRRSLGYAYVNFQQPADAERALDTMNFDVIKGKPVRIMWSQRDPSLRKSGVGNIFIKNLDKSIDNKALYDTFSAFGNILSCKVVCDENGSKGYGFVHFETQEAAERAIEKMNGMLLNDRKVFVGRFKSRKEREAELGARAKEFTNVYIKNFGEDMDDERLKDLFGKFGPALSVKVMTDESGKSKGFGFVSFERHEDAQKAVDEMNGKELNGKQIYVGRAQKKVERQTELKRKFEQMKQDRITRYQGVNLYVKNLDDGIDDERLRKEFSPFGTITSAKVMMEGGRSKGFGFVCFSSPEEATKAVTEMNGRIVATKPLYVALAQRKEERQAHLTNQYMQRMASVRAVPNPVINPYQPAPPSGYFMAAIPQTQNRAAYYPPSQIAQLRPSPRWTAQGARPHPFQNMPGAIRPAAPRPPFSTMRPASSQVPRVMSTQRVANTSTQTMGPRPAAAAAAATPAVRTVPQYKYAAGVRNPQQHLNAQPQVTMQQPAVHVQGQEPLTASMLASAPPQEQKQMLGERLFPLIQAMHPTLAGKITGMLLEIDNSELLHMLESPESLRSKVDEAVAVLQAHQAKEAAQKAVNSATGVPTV
Rce1 inh – yeast Ras-converting enzyme inhibition; Q03530; yeast membranes, quenched prenylated peptide cleavage fluorescence; calls only; actives 0.27% (n = 290,000); AID 2563;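 active = fall in fluorescence gain of 50% or more versus controls, with final raw signal at or below 3038400; inconclusive = same 50% fall but final raw signal above 3038400; inactive = fall in fluorescence gain under 50%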;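 also: plate controls were neutral control wells for no effect and wells lacking membranes for full effect; tested at 10 µM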
Target sequence (Q03530 whole entry, looked up): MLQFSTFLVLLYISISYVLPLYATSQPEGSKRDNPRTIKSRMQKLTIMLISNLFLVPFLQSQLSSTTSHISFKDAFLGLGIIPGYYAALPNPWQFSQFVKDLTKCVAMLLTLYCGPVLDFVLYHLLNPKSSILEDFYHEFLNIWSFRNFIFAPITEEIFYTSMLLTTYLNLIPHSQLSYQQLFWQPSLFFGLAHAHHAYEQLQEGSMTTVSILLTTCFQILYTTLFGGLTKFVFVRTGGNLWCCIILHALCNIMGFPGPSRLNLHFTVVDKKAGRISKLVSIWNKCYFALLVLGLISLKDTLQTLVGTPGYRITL
eIF4H inh retest – also measured in eIF4H inh; calls as there; inhibition, %; compound at 20 µM; confirmation average;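 mean of two retest wells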
PABP polyA inh retest – recorded beside PABP polyA inh, whose call it bears; inhibition, %; compound at 20 µM; confirmation repeats;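 mean of two retest wells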
MT1-MMP act inh RFP – second read-out of MT1-MMP act inh, no call of its own (marks repeat the call); RFP signal change, %; measured here: RFP expression control read;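 0 = vehicle wells; hits needed this value within 50% of zero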
* = called active by the depositor; i = inactive; ? = inconclusive; . = no result given.

SMILES	CSC inhib	Env fusion inh	eIF4H inh	UUG fidelity	MT1-MMP act inh	MT1-MMP act inh RFP	PABP polyA inh	Rce1 inh	others
CCOc1ccc(N2C(=O)CN=C2Nc2ccccc2F)cc1	6	.	-8	.	2	2	4	i
COc1cccc(/C=C/C(=O)OCC(=O)NCCCc2ccccc2)c1OC	-12	-18	.	-14	2	2	.	.
N#Cc1c(N)n(-c2ccccc2)c(=O)c2cc([N+](=O)[O-])ccc12	8	12	5	-9	-7	-1	-1	i
CCN1CCN(S(=O)(=O)c2ccc(-c3cc(C)no3)s2)CC1	-3	1	3	-12	3	6	-6	i
CCN1/C(=C/C=C/C=C/C=C/c2sc3ccccc3[n+]2CC)Sc2ccccc21	11	1	15	-14	27	26	5	i
CC(C)(C)OC(=O)C[C@H]1C/C=C\C[C@H](CC(=O)N(CCO)Cc2ccccc2)C(=O)N[C@@H](Cc2ccccc2)COC1=O	.	-37	.	-12	0	-4	.	.
Cc1ccc(Oc2nnc(-c3cccs3)c3ccccc23)cc1C	-7	1	-7	.	17	-6	9	i
CCOC(=O)C1CCCN(C(=S)NC(=O)/C=C/c2ccc(F)cc2)C1 (stereo unspecified)	-2	-8	-17	-18	-6	-4	-9	i
COc1cc(C(=O)NCc2ccc(S(N)(=O)=O)cc2)ccc1OCC(=O)N1CCOCC1	.	1	.	-7	-4	5	.	.
COc1ccc(NC(=S)NCCN2CCC(C)CC2)cc1	6	-10	7	.	2	1	-2	i
C#CCOCCOCCOCCNc1nc(N2CCN(C(=O)CCCCCCCCCCNC(=O)[C@H](CCC(=O)O)n3cc(CCCCCN)nn3)CC2)nc(N2CCN(C(=O)CCCCCCCCCCNC(=O)[C@@H]([C@H](C)O)n3cc(C)nn3)CC2)n1	10	.	.	2	5	3	.	.
O=C(COc1ccccc1F)NNC(=O)Cc1ccc(S(=O)(=O)N2CCOCC2)s1	1	-41	.	-8	-4	3	.	.
CCN(CC)CCN(C(=O)c1ccc(S(=O)(=O)N2CCOCC2)cc1)c1nc2cc3c(cc2s1)OCCO3	7	-7	0	-6	2	5	3	i
CCC(=O)c1ccc(OCC(=O)OCC(=O)Nc2ccc(C)c(S(=O)(=O)N3CCCCC3)c2)cc1	12	.	.	-6	3	4	.	.
CCOc1ccc(OCc2ccc(C(=O)N3N=C(C(F)F)CC3(O)C(F)F)o2)cc1 (stereo unspecified)	-10	.	-5	-3	6	5	-6	i
Cc1ccccc1-n1c(C)cc(/C=N/NC(=O)c2ccc(CN3CCOCC3)cc2)c1C	14	-28	-10	-12	7	1	3	i
COc1cc2nc(C3CCC3)n(NC(=O)C(OC(C)=O)c3ccccc3)c(=O)c2cc1OC (stereo unspecified)	1	-6	0	37	3	-1	2	i
COc1ccc(-n2c(=S)[nH]c3sc4c(c3c2=O)CCN(C)C4)cc1	-7	.	-8	.	.	.	-9	i
COc1ccc(Cn2c(C(F)(F)F)ccc(C(N)=O)c2=O)cc1	-10	24	15	.	-2	1	14	i
CC1(C)Cc2c(cnn2-c2cccc(F)c2)C(NC(=O)c2cc[n+]([O-])cc2)C1 (stereo unspecified)	14	11	3	-8	2	4	7	i
Cc1ccc(C(=O)CSc2ccc(-c3ccccc3)nn2)cc1	3	.	-12	-13	1	-1	9	i
Oc1ccc(/C=N/N2CCCCC2)cc1O	32	3	11	5	-5	4	6	i
CCN(CC)C(=O)COc1ccc(-c2nnc(Nc3ccc(OC)c(C(=O)NC)c3)c3ccccc23)cc1	-13	14	0	.	6	3	15	i
O=C(c1cc(-c2ccncc2)nc2ccccc12)N1CCN(Cc2ccccc2)CC1	.	-7	.	-28	-4	-4	.	.
CCOc1cccc2sc(N(CCN(C)C)C(=O)c3ccc4ccccc4c3)nc12	-17	.	-5	-6	-1	4	-4	i
COc1ccc(/C=N/n2cnc3c([nH]c4ccccc43)c2=O)cc1CO	-11	7	-10	.	1	0	4	i
CN1CCC(=O)N([C@H](CO)c2ccccc2)CC1	-6	-22	-9	-9	1	5	12	i
Cc1cc(C)cc(Oc2nc(-c3ccccc3)cc(C)c2S(C)(=O)=O)c1	30	.	-9	.	-11	-11	-8	i
Cc1cccc(NC(=O)CNC(=O)c2ccccc2Cl)n1	-5	2	-12	-7	1	2	2	i
Cn1nnc(C(O)CNCc2cccs2)n1 (stereo unspecified)	4	-50	-1	-29	4	1	0	i
CCc1c(C)sc(NC(=S)Nc2cccnc2)c1C(=O)OC	5	-22	1	.	3	4	4	i
CSc1ccc(OC2(C)CCN(Cc3ccc(-c4ccccn4)cc3)C2)cc1 (stereo unspecified)	.	-20	.	-13	2	1	.	.
O=C(NNC1=NS(=O)(=O)c2ccccc21)C1CC(=O)N(c2ccccc2)C1 (stereo unspecified)	-2	-7	-3	.	3	5	3	i
CC(=O)NC(=S)Nc1ccc(S(=O)(=O)Nc2nc(C)cc(C)n2)cc1	-19	-7	-7	.	2	2	-8	i
Cc1ccc(S(=O)(=O)N2CCCCC2)cc1NC(=O)C1CC(=O)N(c2ccc3c(c2)OCCO3)C1 (stereo unspecified)	-1	.	.	.	0	-9	.	i
O=C(NNC(=O)c1sc2cccc(Cl)c2c1Cl)Nc1ccccc1	0	.	14	-16	4	-1	-2	i
NC(=O)[C@@H]1CCNc2c(I)cc([N+](=O)[O-])cc2C(=O)N[C@@H](CCC(=O)O)C(=O)N[C@@H](CO)C(=O)N1	-8	.	-4	13	0	6	17	.
Cc1ccc(C(=O)O/N=C2\CCCc3ccccc32)cc1	13	-44	6	-37	0	-1	-1	i
Cc1cc(NS(=O)(=O)N(C)C)ccc1C(C)C	-9	-13	3	-2	-3	-3	3	i
Cn1c(=O)[nH]c(=O)c2c1nc(Br)n2CC(O)COc1ccc(Cl)cc1 (stereo unspecified)	.	-2	-15	-15	-1	-4	-15	i
S=c1[nH]ncn1/N=C/c1cccs1	-10	-3	-9	-14	3	7	-4	i
CCOC(=O)CNC(=O)Nc1nnc(-c2ccc(OCC)cc2)o1	-12	-16	7	.	4	11	-6	i
COc1ccccc1-c1nn2c(=O)cc(C)nc2s1	.	-151	-10	-4	1	-2	-6	i
CCCS(=O)(=O)c1c(S(=O)(=O)CCC)c2c(N)cccn2c1C(=O)c1ccc(OC)cc1	6	-9	71	.	-74	7	46	i	eIF4H inh retest=8;PABP polyA inh retest=28
COc1cccc(C(=O)NC(=S)Nc2ccc(Cl)c(C(=O)O)c2)c1	-13	.	-4	-12	-3	-1	5	i
CCC(=O)Nc1ccc(-c2cc(-c3ccccc3)nc(-c3ccc(NC(=O)CC)cc3)n2)cc1	-4	-163	-7	.	-2	-1	-15	i
O=C(C1CCCN(c2ncnc3c2nc2n3CCCCC2)C1)N1CCN(c2ccc(F)cc2)CC1 (stereo unspecified)	63	20	-5	-7	1	-13	2	i
COC(=O)C(C(=O)OC)c1ccccc1[N+](=O)[O-]	.	.	-7	-16	-6	2	-5	i
CC1(C)CC(=O)c2cnc(NC(=O)c3ccco3)nc2C1	6	.	2	-8	3	6	-9	i
Cc1ccc(NC(=O)CN(C)CC(=O)Nc2ccccc2C(=O)Nc2ccccc2)cc1	-4	21	-12	.	3	2	-5	i
C/C(=N\Nc1nc(C)cc(-c2ccccc2)n1)c1ccc(C)o1	0	-47	-5	-10	-8	-3	-1	i
CCC(CNc1cc(OC)cc2cccnc12)NC1CCCCC1 (stereo unspecified)	27	15	?	.	1	6	?	i
CC(Oc1ccc(-c2ccccc2)cc1)C(=O)N/N=C/c1cccnc1 (stereo unspecified)	.	-12	-3	-21	-4	-3	4	i
O=C1c2cccc3cccc(c23)C(=O)N1CCCN1CCN(c2ccc(F)cc2)CC1	13	-31	4	.	-1	-4	5	i
O=C(COC(=O)/C=C/c1cccc(Br)c1)NCCc1ccccc1	-4	11	.	-1	2	6	.	i
CCC1(C)Cc2ccccc2/C(=C/C(=O)N2CCCCC2)N1 (stereo unspecified)	7	.	30	16	-3	-3	66*	i
Clc1ccc(Br)cc1-c1nc(-c2ccncc2)no1	1	-284	-15	-22	0	4	-24	i
COc1ccc(-c2cc(C(=O)N(C)Cc3ccccc3F)c3ccccc3n2)cc1OC	23	5	-7	1	0	-6	40	i
CCCCC(=O)Nc1cccc(-c2nc3ncccc3o2)c1	-12	-132	0	-15	3	-1	2	i
CCCCC(=O)Nc1cccc(C(=O)Nc2ccccc2C(=O)O)c1	8	-9	-4	.	-2	0	-5	i
Next section:
SMILES	CSC inhib	Env fusion inh	eIF4H inh	UUG fidelity	MT1-MMP act inh	MT1-MMP act inh RFP	PABP polyA inh	Rce1 inh	others
CCn1c(SCC(=O)NC2CCCC2)nc2c1c(=O)n(C)c(=O)n2C	.	-2	-4	10	-2	2	0	i
O=C(Nc1ccc(F)cc1)c1ccc(S(=O)(=O)N2CCOCC2)o1	-13	4	-10	1	4	0	10	i
O=C(/C=C/c1ccccc1)NNc1ccc(Cl)cc1	96*	2	8	.	-2	4	-26	i
O=C(CSc1nnc(-c2ccccc2Cl)o1)N1CCOCC1	-13	-30	5	-13	-1	1	18	i
COc1ccc(CN2CCNC(=O)C2CC(=O)NC2CCCC2)c(OC)c1 (stereo unspecified)	-9	-9	.	-10	-2	3	.	i
COc1ccc(OC(=O)c2ccc(Cl)cc2)c(C(C)=O)c1	-30	3	5	.	-2	-2	62	i	eIF4H inh retest=-7;PABP polyA inh retest=11
CN(Cc1ccccc1)CC(O)COc1ccc(CNCc2cccnc2)cc1 (stereo unspecified)	-11	-113	-1	1	1	3	18	i
COc1ccc(Br)cc1CN(C)C(=O)CNC(=O)c1ccc2ccccc2c1	.	-4	1	-5	4	-4	-5	i
COC(CN(C)C(=O)C1CCC(CNS(=O)(=O)c2ccc(C)cc2)CC1)OC (stereo unspecified)	-17	4	-10	-2	2	-2	-4	i
COc1ccc(CNC(=O)/C=C/c2ccco2)cc1OC	-9	-1	-4	-16	0	4	-7	i
Cn1nc(C(=O)NC2=NCCS2)ccc1=O	5	.	-1	2	4	5	-2	i
CC1(C)Cc2c(sc3c2C(=O)N(c2ccccc2)C2=NCCN23)CS1	-18	.	-4	-17	-2	2	4	i
CC(C)CN(C(=O)CCNC(=O)c1ccccc1Cl)C1CCS(=O)(=O)C1 (stereo unspecified)	-8	.	.	-22	9	2	.	.
COc1ccc(C)cc1NCc1ccc(OC)c(C)c1OC	-2	-6	4	-9	0	-4	6	i
Cc1ccc(C)c(C(=O)COC(=O)c2cc([N+](=O)[O-])ccc2N2CCOCC2)c1	-2	.	.	-13	2	-4	.	i
COC(=O)CN1C(=O)[C@H]2[C@@H](c3ccc(C)o3)N3C(=O)CN(Cc4ccccc4)C(=O)[C@@]3(Cc3ccccc3)[C@H]2C1=O	-10	-21	-10	-7	0	5	-4	i
O=C(OCc1cccc2ccccc12)c1ccc2c(=O)[nH]c(CN3CCOCC3)nc2c1	.	-113	-2	.	1	3	-4	i
COc1ccc(CC(=O)Nc2ccc3c(c2)CCC3)cc1S(=O)(=O)N1CCOCC1	3	.	2	17	2	6	0	i

3 compounds already listed, sorted by molar mass, largest number first.
SMILES	CSC inhib	Env fusion inh	eIF4H inh	UUG fidelity	MT1-MMP act inh	MT1-MMP act inh RFP	PABP polyA inh	Rce1 inh	others
Cc1ccc(S(=O)(=O)N2CCCCC2)cc1NC(=O)C1CC(=O)N(c2ccc3c(c2)OCCO3)C1 (stereo unspecified)	-1	.	.	.	0	-9	.	i
Cc1cc(C)cc(Oc2nc(-c3ccccc3)cc(C)c2S(C)(=O)=O)c1	30	.	-9	.	-11	-11	-8	i
CCC1(C)Cc2ccccc2/C(=C/C(=O)N2CCCCC2)N1 (stereo unspecified)	7	.	30	16	-3	-3	66*	i
